Compound activity (PubChem)
TNAP inh no acc: inhibitors of human TNAP without phosphate acceptor | purified TNAP, CDP-star luminescence, 30 min | inhibition, % at 20 µM | actives 0.26% (n = 200,000) | AID 1012;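 active = tissue-nonspecific alkaline phosphatase inhibition above about 50% at 20 µM in the single-dose screen, limit read from the data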;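 also: 0% = DMSO negative control and 100% = EDTA positive control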
Target sequence (P05186 whole entry, looked up): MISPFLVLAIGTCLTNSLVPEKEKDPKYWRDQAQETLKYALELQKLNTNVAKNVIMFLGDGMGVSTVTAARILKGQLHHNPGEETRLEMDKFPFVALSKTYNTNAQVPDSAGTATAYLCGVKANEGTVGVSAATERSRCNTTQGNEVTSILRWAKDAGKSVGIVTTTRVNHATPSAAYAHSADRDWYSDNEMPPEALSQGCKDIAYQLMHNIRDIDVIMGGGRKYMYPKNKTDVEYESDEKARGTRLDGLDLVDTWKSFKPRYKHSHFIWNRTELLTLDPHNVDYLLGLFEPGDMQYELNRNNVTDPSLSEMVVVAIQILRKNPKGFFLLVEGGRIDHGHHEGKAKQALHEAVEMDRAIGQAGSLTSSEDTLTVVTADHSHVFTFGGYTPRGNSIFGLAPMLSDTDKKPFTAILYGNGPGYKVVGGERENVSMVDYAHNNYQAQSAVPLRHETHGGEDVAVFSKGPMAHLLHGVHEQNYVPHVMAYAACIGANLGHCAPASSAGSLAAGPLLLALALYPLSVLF
TNAP act hi DEA: increases human TNAP activity under high phosphate acceptor concentration | P05186 | purified TNAP, CDP-star luminescence, 1 M DEA, 30 min; active compounds read high; 0 = EDTA background, 1 = DMSO-only activity | activation factor at 20 µM | 200,000 tested, under 10 active;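 active = activation factor at least 2 at 20 µM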
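Assay system: human TNAP; Input: enzyme diluted 1/800 final; Reagent: CDP-star luminogenic substrate at 100 µM final; Timing: 30 min, room temperature; Signal: luminescence; Evaluation: TNAP activation factor scaled between EDTA and DMSO control wells.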
Diaph inh CS: counter-screen for diaphorase-based assays: diaphorase inhibitors and chemical oxidizers; diaphorase resazurin-to-resorufin fluorescence, NADH, 16 min; bacterial (C. kluyveri) enzyme, not human; inhibition, % at 20 µM; actives 0.69% (n = 190,000);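 active = primary screen inhibition at 20 µM above a set limit, cut at about 50% in these data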;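 also: plate controls were DMSO with full reaction for no effect and wells lacking NADH for full effect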
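Assay system: diaphorase enzyme from Clostridium kluyveri. Quantity: enzyme working solution with 0.14 U/mL diaphorase. Schedule: reaction incubation of 16 min at room temperature. Technique: resorufin fluorescence, excitation 544 nm, emission 590 nm. Controls: No-NADH positive control and DMSO neutral control.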
bIAP act: increases bovine intestinal alkaline phosphatase activity; activation factor at 20 µM; purified bovine IAP, CDP-star luminescence, 30 min; active compounds read high; fold of DMSO-control signal, blank-subtracted; actives 0.17% (n = 200,000);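 active = activation factor of 2 or more at 20 µM, a signal rise over negative controls twice the positive control's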
bIAP inh: blocks bovine intestinal alkaline phosphatase activity; purified bovine IAP, CDP-star luminescence, 30 min; inhibition, % at 20 µM; 190,000 tested, under 10 active;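 active = over 50% inhibition of intestinal alkaline phosphatase at 20 µM in the single-dose screen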
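Incubation: 30 min reaction at room temperature / Material: purified bovine intestinal alkaline phosphatase (IAP) enzyme / Input: enzyme at 1/65,000,000 dilution / Dosing: 20 µM single dose / Signal: CDP-star luminescence signal / Reagent: CDP-star chemiluminescent phosphatase substrate, 30 µM final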
TNAP inh hiacc: TNAP (human) inhibition, high acceptor. AID 1135. purified TNAP, CDP-star luminescence, 1 M DEA. actives 0.03% (n = 200,000). inhibition, % at 20 µM;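 active = over 50% inhibition of tissue-nonspecific alkaline phosphatase at 20 µM in the single-dose screen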;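 also: plate controls were DMSO wells for no effect and EDTA-quenched wells as full inhibition for full effect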
Lmaj promast: Leishmania major promastigote growth inhibition. Leishmania major promastigotes, resazurin fluorescence viability. actives 9% (n = 200,000). inhibition, % at 10 µM. AID 1063; in the data active = inhibition above about 50%;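 also: promastigotes grown with compound for 44 hours at 28 °C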
Numbers without * were called inactive; x = not tested or not shown. Not all compounds are listed; count on the stated rates, not on these rows.

SMILES	TNAP inh no acc	TNAP act hi DEA	Diaph inh CS	bIAP act	bIAP inh	TNAP inh hiacc	Lmaj promast
CCNc1nc(NCC)nc(N(C)N)n1	1	1	6	1	-1	1	21
CCCCCCCCCCCC(=O)NC(C(=O)OCC)C(O)c1cccc([N+](=O)[O-])c1 (configuration not stated)	11	1	9	1	0	4	-6
CN(C(=O)CSc1ncccc1C(=O)O)c1ccccc1	-9	1.1	18	0.9	11	-5	2
O=C(CN(c1ccccc1)S(=O)(=O)c1ccccc1)NCCSCc1ccco1	-3	1	16	1	2	-3	68*
CC1=C(C(=O)NCCN2CCN(C)CC2)C2(CCC(C)CC2)OC1=O (configuration not stated)	-12	1	4	0.9	9	-2	5
CN1C2C=C3C(C#N)=C(N)C(C#N)(C#N)[C@H](c4c(F)cccc4F)[C@H]3C1CC2 (some centres not stated)	-7	1	16	1	1	-2	19
CCCCN1C(=O)/C(=c2\sc3nc(=O)c(-c4ccccc4)nn3c2=O)c2ccccc21	-6	1	13	1	-3	0	-11
COC(=O)c1ccc(COc2ccc(/C=C(\C#N)c3nc4ccccc4[nH]3)cc2OC)o1	-6	1.1	11	1	-1	-7	3
CCOC(=O)/C(=C\c1ccc([N+](=O)[O-])o1)NC(=O)c1ccccc1	-8	1	9	0.9	10	3	99*
Cc1cccc(N(C(=O)Cc2cccs2)C(C(=O)NC2CCCC2)c2ccsc2)c1 (configuration not stated)	-14	1	-12	1.1	-6	-3	4
O=C(Cc1ccc(F)cc1)N(c1ccc(F)cc1)C1C=CS(=O)(=O)C1 (configuration not stated)	-3	0.9	5	1	1	6	7
N#Cc1nc(Cc2cccc3ccccc23)oc1N1CCN(c2ccccc2)CC1	0	1	7	1	-4	-4	0
FC(F)(F)c1nc(-c2cccnc2)ncc1-c1nnnn1-c1ccccc1	5	1	6	0.9	7	-3	6
CCOC(=O)C1=C(C)N(CC(C)C)C(=O)/C1=C\c1ccc(OCC(=O)Nc2ccccc2)cc1	1	1	18	0.9	12	4	81*
Cn1ccnc1Sc1ccc(/C=N/NC(=O)c2ccccc2[N+](=O)[O-])cc1[N+](=O)[O-]	1	1	16	1	3	1	-9
C1CCC2=NCCCN2CC1	-6	1	16	0.9	12	-1	-2
COc1ccc(CN(C(=O)c2cccs2)C(C(=O)NC2CCCCC2)c2ccc3ncccc3c2)cc1 (configuration not stated)	5	1	5	0.9	8	0	37
O=C(CSc1ccc(Cl)cc1)N1CCN(c2ccc(Cl)cc2[N+](=O)[O-])CC1	-2	1	19	0.5	x	-1	7
Cc1c(C(=O)NC(C)CCc2ccccc2)cccc1[N+](=O)[O-] (configuration not stated)	-13	1.1	11	0.9	8	-8	-2
Cc1nn(CCOc2ccccc2)c(=O)n1-c1ccc(F)cc1	-10	1	-12	1	-1	-3	-3
Cc1ccc(C)c(N(CC(=O)Nc2cc(Cl)ccc2Oc2ccccc2)S(C)(=O)=O)c1	-11	1.1	18	0.9	8	-6	52*
COc1ccc(C(=O)NCc2ccc(-c3nc4ccccc4s3)cc2)cc1	4	1	7	1	2	-1	2
COc1ccc(-n2cnnc2SCC(=O)Nc2ccc(N3CCOCC3)cc2)cc1	-10	1	15	1.1	-10	-3	52*
COc1ccccc1-c1nnc(SCc2nc3ccccc3s2)n1C	-8	1	11	1	0	3	-2
CCOc1ccc(NC(=O)N(CCN2CCOCC2)Cc2ccc3c(c2)CCCN3CC)cc1	1	1	1	1	-2	-5	8
CCN(CC)c1ccc(/C=N/NC(=S)NCc2ccccc2)cc1	-5	1	18	0.9	9	4	0
Nc1nc(N2CCOCC2)cc(=O)[nH]1	-10	1	17	1	5	-1	-5
CCCC(=O)NC(Nc1cccc(C(F)(F)F)c1)C(Cl)(Cl)Cl (configuration not stated)	-6	1	13	1.1	-7	-1	7
NC(=O)C1CCN(C(=O)CCc2nc3ccccc3c(=O)[nH]2)CC1	-11	1	10	1	3	-3	-4
COc1cccc(-n2c(SCC(=O)Nc3sc4c(c3C(N)=O)CCC4)nc3ccccc3c2=O)c1	-5	1.1	22	1	-1	-6	52*
Cc1ccc2nc(NC(=S)NC(=O)c3cccs3)sc2c1	0	1	14	1	-3	-1	59*
Cc1ccc(Cn2nc(-c3ccccc3)nc2-c2ccccc2)cc1	-4	1	18	1	2	-1	26
CC1CCc2cccc3c2N1c1cc(C#N)c(C#N)cc1O3 (configuration not stated)	-4	1	8	1	4	1	11
COc1ccc(-c2cc(=O)oc3cc4occ(C)c4cc23)cc1	-10	1	15	1	4	-4	-2
COC(=O)c1ccc(C(=O)OC)c(NC(=O)CSCc2ccc(Br)cc2)c1	-6	1	20	1	-1	-4	-4
Cc1cc(NC(=O)CSc2nc3sc(C)c(C)c3c(=O)n2C2CCCC2)no1	-9	1	-1	1	-1	-2	-4
Cc1cc(CSc2ccccc2)ccc1NC(=O)c1cccc([N+](=O)[O-])c1	-11	1	4	0.9	9	-4	-7
O=C(O)C1C2C=CC(C2)C1C(=O)NCCC1=CCCCC1 (configuration not stated)	-14	1.1	12	0.9	8	-5	2
CC(=O)Nc1ccccc1C(=O)C(=O)Nc1ccc(F)cc1	-11	1.1	8	1	3	-6	-3
CC(C)OC(=O)c1sc2nc(-c3ccccc3)ccc2c1N	-15	1.1	17	1.1	-10	-7	-6

Quoted from the listing.
COc1ccc(C(=O)NCc2ccc(-c3nc4ccccc4s3)cc2)cc1 in Diaph inh CS = 7
Cc1ccc(C)c(N(CC(=O)Nc2cc(Cl)ccc2Oc2ccccc2)S(C)(=O)=O)c1 in bIAP inh = 8
COc1ccc(-c2cc(=O)oc3cc4occ(C)c4cc23)cc1 in bIAP inh = 4
Cc1ccc2nc(NC(=S)NC(=O)c3cccs3)sc2c1 in Diaph inh CS = 14
COC(=O)c1ccc(C(=O)OC)c(NC(=O)CSCc2ccc(Br)cc2)c1 in bIAP act = 1
CCN(CC)c1ccc(/C=N/NC(=S)NCc2ccccc2)cc1 in Diaph inh CS = 18

In the list so far, two contain a CF3 group.
SMILES	TNAP inh no acc	TNAP act hi DEA	Diaph inh CS	bIAP act	bIAP inh	TNAP inh hiacc	Lmaj promast
FC(F)(F)c1nc(-c2cccnc2)ncc1-c1nnnn1-c1ccccc1	5	1	6	0.9	7	-3	6
CCCC(=O)NC(Nc1cccc(C(F)(F)F)c1)C(Cl)(Cl)Cl (configuration not stated)	-6	1	13	1.1	-7	-1	7

A different layout for part of the listing above.
| smiles | TNAP inh no acc | TNAP act hi DEA | Diaph inh CS | bIAP act | bIAP inh | TNAP inh hiacc | Lmaj promast |
| --- | --- | --- | --- | --- | --- | --- | --- |
| CC1CCc2cccc3c2N1c1cc(C#N)c(C#N)cc1O3 (configuration not stated) | -4 | 1 | 8 | 1 | 4 | 1 | 11 |
| O=C(O)C1C2C=CC(C2)C1C(=O)NCCC1=CCCCC1 (configuration not stated) | -14 | 1.1 | 12 | 0.9 | 8 | -5 | 2 |

(listing goes on)
SMILES	TNAP inh no acc	TNAP act hi DEA	Diaph inh CS	bIAP act	bIAP inh	TNAP inh hiacc	Lmaj promast
O=C(O)c1cc(S(=O)(=O)NCC2CCCO2)ccc1Cl (configuration not stated)	-10	1	-6	1	2	-3	-5
COc1ccc(NC(=O)COC(=O)c2ccc(OCc3c(C)noc3C)cc2)cc1OC	-12	1	10	1.1	-11	-4	-7
CCN(C(=O)Cc1ccccc1OC)c1nnc(-c2ccncc2)s1	-12	1	5	1	-2	-3	-1
O=C(NCc1ccccc1C(F)(F)F)C1CC(c2ccccc2[N+](=O)[O-])=NO1 (configuration not stated)	-8	1.1	19	0.9	6	-6	-2
COc1ccc(/C(O)=C2/C(=O)C(=O)N(CC3CCCO3)C2c2cccc(O)c2)cc1 (configuration not stated)	2	1	-1	0.9	5	-2	-9
COc1ccc(C(=O)NCS(=O)(=O)c2ccc(C)cc2)cc1	-6	1	12	1	-1	-4	-7
Cc1ccc(SCc2nc3ccccc3n2CC(=O)Nc2ccc(Cl)cc2)cc1	-18	1	-12	1.2	-15	2	37
CCOC(=O)c1cnc2cc(-c3ccc(C)cc3)nn2c1-c1ccccc1	3	1	20	0.9	6	4	5
COc1c(F)c(F)c(C(=O)O)c(Nc2ccc(C)cc2)c1F	2	1	4	0.9	9	-1	-7
OCCNC1=NCCN1	-11	1.1	9	1	2	-5	-3
CCOc1ccccc1OCC(=O)Nc1ccc(Cl)cc1Cl	-8	1	-9	1	4	-3	-4
COc1ccc(C2C(C(=O)N3CCOCC3)=C(C)NC3=C2C(=O)CC(C)(C)C3)c(OC)c1 (configuration not stated)	-10	1.1	-5	1	-2	-5	-7
CCOCCCNC(=O)CCS(=O)(=O)Cc1ccc(C)cc1	-6	1	15	1.1	-6	-4	-5
CCOc1c2ccc(C(=O)NCc3cc(C(F)(F)F)cc(C(F)(F)F)c3)cc2nn1CCOC	-4	1	8	1	-3	1	1
O=C(CC1c2ccccc2Oc2ccccc21)N1CCN(c2ccccn2)CC1	-8	1.1	0	1	-2	-5	6
CCC(=O)Nc1ccc(C(=O)Nc2ccc3c(c2)OCO3)cc1	-14	1	0	0.9	12	-3	-4
O=C(CN1C(=O)C2C3C=CC(C3)C2C1=O)Nc1ccc(C(=O)O)cc1 (configuration not stated)	-10	1	3	1	-3	-4	-2
Cc1ccnc(NS(=O)(=O)c2ccc(NC(=O)C3CCCNC3=O)cc2)n1 (configuration not stated)	-11	1	12	1	4	-3	-10
CCn1c(CC(=O)Nc2ccc(C)cc2)nnc1SCC(=O)Nc1nc(C)cs1	-10	1	-1	0.9	7	-2	-4
COc1ccccc1NC(=O)CN1CCN(CC(=O)Nc2ccc(Cl)c(C(F)(F)F)c2)CC1	-5	1.1	10	1	2	-6	33
COc1ccccc1NC(=O)Cc1csc(NC(=S)Nc2ccc(C)cc2)n1	-5	1	22	0.9	5	3	19
O=C(CNC(=O)c1ccccn1)N/N=C/c1ccccc1	16	1.1	5	1	0	-6	-5
Cc1ccc(-c2cc(N)n(-c3ccc(C)cc3)n2)cc1	-8	1	13	0.9	10	-2	-2
CCc1cc(C(c2ccc(F)cc2)N2CCOCC2)c(NC(=O)c2ccccc2)s1 (configuration not stated)	-1	1	13	1	0	-1	1
CCn1nnnc1SCC(=O)NC1CCCC1	-8	1	8	1	2	-3	-5
CCOC(=O)C1(N(CC)CC)Sc2cc(C)ccc2NC1=O (configuration not stated)	-5	1	21	1	-5	-5	94*
CC12CCC(C(=O)N(CC(O)CN3CCCCC3)C1=O)C2(C)C (configuration not stated)	-5	1	-1	1.1	-5	0	-6
O=C(N/N=C/c1ccco1)c1ccncc1	-5	1	3	1	0	-1	-1
Cc1sc2c(c1C)CN(C(C)(C)C)CN2C(=O)c1ccccc1	-4	1	13	0.6	38	0	-1
COc1ccc(CNC(=O)C2CCN(C(=O)N3CCOc4ccc(C)cc43)CC2)cc1	2	1.1	4	1.2	-16	-7	8
Cn1nnc(NC(=O)c2ccco2)n1	-6	1.1	5	0.9	8	-5	10
COc1cccc(C(=O)NC2CC3CCCC(C2)N3CC(=O)Nc2ccccc2)c1 (configuration not stated)	-13	1	58*	1.1	-15	2	50
CCSc1cc(N2CCCC2)nc(-c2ccc(F)cc2)n1	-5	1	5	0.9	8	3	-1
COc1ccc2nc(Sc3c([N+](=O)[O-])nc(C)n3Cc3ccccc3)[nH]c2c1	-1	1	9	1	2	1	87*
Cn1cc(C(=O)c2ccc(Cl)cc2)cc1-c1nc2ccccc2n1C	-3	1	16	0.9	6	1	33
CC(C)CNC(=O)C(=O)N/N=C/c1cccs1	-8	1	5	1	3	-1	-5
